High-throughput results (PubChem BioAssay)
YopH PTP inh – YopH (Yersinia) phosphatase inhibition; fluorescence Ex485/Em525; inhibition, %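 (about 10 µM by stock and volumes)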; 140,000 tested, 0.16% active; AID 898;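 active = inhibition of 50% or more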;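 also: controls were vehicle for no effect and minimum signal wells for full effect; inactives centre near -20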
Arbovirus anti – arbovirus infection inhibition; arbovirus infection cell-based antiviral screen; inhibition, % at 10 µM; 200,000 tested, 0.37% active;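 active = inhibition from about 30%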;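 also: bluetongue infection of BSR cells; cell survival read as ATP light after 72 h; 0% = infected wells without compound and 100% = uninfected wells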
RecA intein inh – blocks M. tuberculosis RecA intein splicing; 290,000 tested, 0.75% active; cell-free RecA intein splicing, fluorescence; AID 2221; inhibition, %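 (about 9 µM by stock and volumes)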; in the data active = inhibition above about 30%; inconclusive = no clear call, values can overlap the other calls;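 also: 0% = vehicle wells and 100% = reference inhibitor control wells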
Target sequence (P9WHJ3 whole entry, looked up): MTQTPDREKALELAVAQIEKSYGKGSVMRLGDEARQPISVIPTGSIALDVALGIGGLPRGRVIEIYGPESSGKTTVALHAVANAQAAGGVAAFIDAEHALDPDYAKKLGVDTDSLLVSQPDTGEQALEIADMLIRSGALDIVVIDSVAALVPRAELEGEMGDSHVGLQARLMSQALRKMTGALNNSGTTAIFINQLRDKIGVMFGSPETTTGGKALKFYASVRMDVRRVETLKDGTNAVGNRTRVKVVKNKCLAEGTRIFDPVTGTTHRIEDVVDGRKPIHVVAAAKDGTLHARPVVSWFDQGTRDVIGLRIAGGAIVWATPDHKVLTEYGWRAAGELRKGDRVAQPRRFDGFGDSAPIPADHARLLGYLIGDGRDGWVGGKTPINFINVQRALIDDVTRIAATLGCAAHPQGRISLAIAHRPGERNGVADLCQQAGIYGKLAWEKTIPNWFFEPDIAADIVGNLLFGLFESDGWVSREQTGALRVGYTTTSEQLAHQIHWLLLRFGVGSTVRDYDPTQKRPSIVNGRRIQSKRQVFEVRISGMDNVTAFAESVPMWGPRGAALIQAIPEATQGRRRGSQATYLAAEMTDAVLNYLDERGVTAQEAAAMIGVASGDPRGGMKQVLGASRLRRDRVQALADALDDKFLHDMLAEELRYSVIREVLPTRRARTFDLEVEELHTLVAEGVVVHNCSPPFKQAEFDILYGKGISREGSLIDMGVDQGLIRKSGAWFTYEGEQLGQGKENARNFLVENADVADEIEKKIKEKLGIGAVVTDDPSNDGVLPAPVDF
Mtb H37Rv – M. tuberculosis H37Rv growth inhibitors, H37Rv strain (AID 1626). M. tuberculosis H37Rv growth inhibition; higher % means a stronger effect. inhibition, % at 10 µM; hits with a dose series show IC50 in µM. 220,000 tested, 0.95% active;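 active = confirmed in a dose series; inconclusive = inhibition above 80% but not taken into the dose series; inactive = below 80% or under 30% at every dose of the series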;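 also: bacteria incubated seven days before Alamar blue readout; 0% = bacteria only wells and 100% = bacteria with antibiotic wells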
Mtb bLac sens – beta-lactam sensitization of Mtb H37Rv; 330,000 tested, 0.27% active; AID 434955; M. tuberculosis H37Rv growth with meropenem, percent inhibition; hits of this screen are not shown here; inhibition, % at 25 µM;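 active = about 74% or more and at least 40 points above the plate without the antibiotic, then above 30% in a dose series; inconclusive = first-round hits that could not be retested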;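 also: growth measured after seven days incubation then overnight dye step; 0% = bacteria only wells and 100% = bacteria with antibiotic; twin plates without the antibiotic show which effects depend on it; some results filed as inactive read as strong as hits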
Arbovirus anti repeat – second read-out of Arbovirus anti, no call of its own (marks repeat the call); inhibition, %; measured here: 10K subset replicate screen; many hits read low in the repeat;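 first of two repeat runs on a subset; 0% = infected and 100% = uninfected wells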
* hit, by the source's call; ? = inconclusive; . = no result given. This is a subset (hit frequency here may not be typical).

SMILES | YopH PTP inh | Arbovirus anti | RecA intein inh | Mtb H37Rv | Mtb bLac sens | others
COc1cccc(C2CC(c3ccccc3)=NN2S(=O)(=O)c2ccc(C)cc2)c1OC (stereo not given) | . | -7 | 12 | -1% | -1
CC1(C)CC(=O)C(N=Nc2cccc([N+](=O)[O-])c2)=C(O)C1 | . | . | . | -7% | -2
COC(=O)c1nn(-c2ccc(OC)cc2)c(=O)cc1O | . | 10 | -3.0 | -4% | -11
O=c1cc(O)nc(SCc2ccccc2)n1-c1ccc(F)cc1 | -33 | 12 | 8.0 | -6% | -3
COc1ccccc1-c1noc(CCCC(=O)NC2CCCCC2)n1 | . | . | 0.8 | . | 1
CNS(=O)(=O)c1cccc2cccnc12 | -25 | -1 | 0.1 | 5% | -5
O=C(O)[C@H]1CCCC[C@H]1C(=O)NCCNC(=O)[C@@H]1CCCC[C@@H]1C(=O)O | -22 | 11 | 1.8 | 2% | -6
CCOC(=O)C(C(=O)OCC)N(C#N)c1nc(SC)nc(N(C)C)n1 | -35 | 1 | 6.3 | -5% | 14
CSc1nc2nc(C(F)(F)F)cc(-c3ccccc3)n2n1 | 10 | -1 | 0.8 | 8% | -6
CCC(=O)c1ccc(OC(C)C(=O)NC2(C#N)CCCCC2)cc1 (stereo not given) | . | 2 | -0.8 | 1% | -2
CCC(CC)C(=O)Nc1cccc(C(=O)Nc2ccc(S(N)(=O)=O)cc2)c1 | . | 1 | 2.3 | -6% | 2
Cc1cc(C(=O)Nc2sc(C)c(C)c2C#N)c(C)o1 | -48 | -1 | 0.1 | 1% | 4
COc1ccc(C(=O)Nc2ccc3nc4n(c(=O)c3c2)CCCC4)cc1[N+](=O)[O-] | -15 | 10 | -2.5 | -11% | 6
COc1ccc(CN2CCN(CC3CC3)CC2CCO)c(C)c1C (stereo not given) | . | . | -0.1 | . | 6
COc1ccc(S(=O)(=O)N2CCOCC2)cc1NC(=O)CSc1cccc[n+]1[O-] | . | . | -0.1 | 4% | -6
CN1CCN(S(=O)(=O)c2cccc(C(=O)N3CCc4ccccc43)c2)CC1 | . | 10 | 0.8 | 6% | -4
O=C(OCCN1C(=O)CCC1=O)c1ccc(S(=O)(=O)N2CCCCC2)cc1 | -36 | -1 | -1.6 | -21% | -9
CCc1ccccc1NC(=O)CCCSc1nc2ccccc2s1 | -25 | 9 | -0.2 | -5% | 7
O=C1C=C(Nc2ccc(Cl)cc2)C(=O)N1c1ccc(Cl)cc1 | -21 | 5 | -0.4 | -3% | -11
Cc1cc(C)c2c(c1)NC(c1cc3c(cc1Br)OCO3)C1CC=CC21 (stereo not given) | -23 | -11 | 9.8 | 36% | 61
CCCNCC1C(Oc2ccc(Cl)cc2)C(=O)N1c1ccccc1C (stereo not given) | -34 | -3 | 3.4 | 4% | 2
Cc1ccc(CCNC(=O)C2CC(=O)N(C3CCCCC3)C2)cc1 (stereo not given) | . | . | -1.7 | . | -5
O=C(NCCOc1ccccc1F)Nc1ccc(Br)cc1 | . | 5 | . | 4% | 0
COc1ccccc1CP(=O)(c1ccccc1)c1ccccc1 | -6 | -4 | 0.5 | 1% | -1
C/C(=N\NC(=O)CCC(=O)NCc1ccccc1)c1ccco1 | . | . | -2.1 | . | 3
Further compounds
SMILES | YopH PTP inh | Arbovirus anti | RecA intein inh | Mtb H37Rv | Mtb bLac sens | others
O=C(NC(=S)Nc1ccc(Oc2ccccc2)cc1)c1ccc(Cl)cc1 | 0 | -15 | 5.4 | ? | 99
Cc1cccc(-c2nc(CS(=O)CC(=O)NCCCSC3CCCCC3)c(C)o2)c1 (stereo not given) | 12 | -18 | 6.2 | -20% | 3
COc1ccc(N2CCN(C(=O)CNC(=O)Cn3c(C)cc4ccccc4c3=O)CC2)cc1 | -20 | -5 | 4.1 | 2% | -10
CCN(CC)C(=S)SCC(=O)c1c(C)[nH]c2ccccc12 | -24 | -17 | 1.6 | 2% | -1
COc1ccc(OC)c(CNC(=O)CCn2nc(C)c3c(C)n(-c4ccccc4)nc3c2=O)c1 | . | . | 0.8 | . | -8
CS(=O)(=O)NN1C(=O)c2ccccc2NC1c1cccs1 (stereo not given) | . | 5 | -7.9 | 5% | -7
COc1ccc(C(=O)Nc2ccccc2C(=O)N2CCCCCC2)cc1OC | . | . | -0.9 | . | -7
Cc1ccc(-c2noc(CCCC(=O)Nc3cccnc3)n2)cc1 | -35 | 8 | -0.2 | 36% | 95
Cc1cc(N2CCN(C)CC2)nc2ccc(NC(=O)CCC(=O)NCc3ccco3)cc12 | -38 | -5 | -0.7 | 1% | -13
Brc1c(CSc2nncc3ccccc23)nc2ccccn12 | . | 4 | 4.3 | 5.6µM* | -8
CCOC(=O)N1CCN(c2c(NCc3ccc(F)cc3)c(=O)c2=O)CC1 | . | . | -3.7 | -6% | -1
Cc1csc(CNC(=O)CC2C(=O)NCCN2Cc2ccc(F)cc2Cl)n1 (stereo not given) | . | . | 0.4 | . | -14
COc1ccc(C2(O)CCN(C(=O)NC3CCCCC3)CC2)cc1 | -26 | -4 | 1.8 | 2% | -3
CCN1C(=O)CSc2ccc(C(=O)NCCCN3CCOCC3)cc21 | -52 | 9 | -0.4 | -3% | .
O=C(Cc1ccc(Br)cc1)Nc1cccc(-c2cn3c(n2)SCC3)c1 | . | 6 | 10.0 | 10% | -2
CC(C)Oc1ccc(C(=O)NC(=S)Nc2ccc(CN3CCOCC3)cc2)cc1 | -22 | 11 | -1.4 | ? | 45
CC(C)(C)NC(=O)CSc1nc2cccnc2n1C1CCCCC1 | . | . | 2.8 | . | -17
O=C(NCCCN1CCOCC1)C1CC(=O)N(c2ccccc2)C1 (stereo not given) | . | . | 0.4 | . | 1
CCC1CCCCN1C(=O)N[C@@H](CCSC)C(=O)OC (stereo not given in full) | -33 | 6 | 0.2 | -9% | 11
Cc1ccc(S(=O)(=O)N2CCOCC2)cc1C(=O)OCCOc1cccc(Cl)c1 | . | . | -0.2 | . | -10
O=C(NCc1ccc(N2CCCC2=O)cc1)C1CCC(=O)N(Cc2ccccc2F)C1 (stereo not given) | . | . | 1.1 | . | ?
O=C(NNC(=O)c1ccccc1Cl)c1csc(N2CCOCC2)n1 | . | . | -6.8 | . | 97
COC(=O)c1c(NC(=O)CSc2ncnc3c2cnn3-c2ccccc2Cl)sc2c1CCCC2 | -4 | 9 | -1.5 | -4% | 14
COC(=O)c1c(NC(=O)/C=C/C(=O)O)sc(C)c1-c1ccc(C)c(C)c1 | -53 | -9 | 63* | -2% | 1
Cc1cccc(N(CC(=O)NCc2ccccc2)C(=O)Cn2nnc(-c3ccc(C)o3)n2)c1 | -35 | 0 | 3.5 | -6% | 1
Later entries:
SMILES | YopH PTP inh | Arbovirus anti | RecA intein inh | Mtb H37Rv | Mtb bLac sens | others
COC(=O)c1cn(NC(=O)c2cc(OC)c(OC)c(OC)c2)c(=O)c2ccccc12 | -5 | -14 | -0.7 | -10% | 4
CCOC(=O)C1CN(S(=O)(=O)c2ccccc2)c2cc(S(=O)(=O)CC)ccc2O1 (stereo not given) | -44 | 1 | . | -4% | 2
CC(=O)c1ccc(C(=O)NC2CCCN(Cc3ccccc3F)C2)s1 (stereo not given) | . | . | -0.2 | . | -5
COc1ccc(CCC(=O)N2CCN(C3CCCCC3)CC2)cc1 | -11 | 3 | -0.5 | -11% | -4
CCC(C)NCCOc1cccc(Br)c1 (stereo not given) | 6 | -2 | 0.0 | 11% | -7
COc1ccc2cc(/C=C/C(=O)c3ccco3)c(Cl)nc2c1 | -16 | -3 | -2.2 | . | -5
Cc1cc(=O)[nH]c2ccc(S(=O)(=O)NCc3ccccc3)cc12 | . | . | -2.9 | . | 3
O=C(Cc1ccccc1)NCCCc1ccccc1 | 4 | -4 | -0.6 | 7% | 3
COC(=O)CN(C)C(=O)c1ccc2nc(Cc3cccc(Cl)c3)oc2c1 | . | . | -1.0 | . | 3
O=C(O)c1ccc(S(=O)(=O)c2ccccc2)cc1 | -39 | 3 | 1.0 | -10% | 3
Cc1cc(Br)ccc1NC(=O)CN(C)C(=O)Cn1c(=O)cnc2ccccc21 | . | . | -3.4 | . | 1
O=C(O)c1ccc(N2Cc3ccccc3C2)cc1O | -10 | 7 | -0.1 | 58% | 91
CC(C)CC(=O)NC1(C(F)(F)F)C(=O)N(Cc2ccccc2)C2=C1C(=O)CC(C)(C)C2 (stereo not given) | -13 | -1 | -4.3 | -5% | 7
O=c1[nH]nc(-c2ccc(F)cc2)cc1Cc1ccccn1 | . | . | 0.2 | -6% | 0
COc1ccc(/C=C2/C(=N)N3N=C(CC(=O)N4CCCC4)SC3=NC2=O)cc1 | . | . | 2.2 | . | 4
Cc1[nH]c2ccccc2c1C(=O)CN1CCCCC1C (stereo not given) | -5 | 2 | 0.4 | -3% | -6
Cc1ccc(S(=O)(=O)n2nc(OC(=O)c3cccc(F)c3)cc2N)cc1 | . | . | 2.9 | . | 4
Nc1c(Cl)cc(-c2csc(NC(CO)c3nc4ccccc4n3CCOCCO)n2)cc1Cl (stereo not given) | . | . | 7.5 | -4% | -4
Cc1nc2ccc(NC(=O)CS(=O)(=O)c3ccc(F)cc3)cc2s1 | . | . | -1.1 | . | -13
Cc1cc(C)n2nc(SCc3nnc(-c4cccs4)o3)nc2n1 | . | 20 | 0.4 | -3% | -6
S=c1[nH]c(-c2ccc(Br)cc2)cn1CCc1ccccc1 | . | -2 | 1.7 | 4% | -4
O=C1Nc2ccccc2/C1=C/c1cnc[nH]1 | -31 | -9 | 2.5 | -3% | -5
COc1ccc(C(=O)Nc2cccc(C(=O)N3CCN(C)CC3)c2)cc1 | 4 | 3 | -0.1 | -2% | -1
CCCCc1c(O)nc(SCC(=O)N2CCOCC2)[nH]c1=O | 4 | 12 | -1.3 | 4% | 11
O=C(CSc1nnc(Cc2cc(=O)[nH]c(=O)[nH]2)n1-c1ccc(Cl)cc1)N1CCc2ccccc21 | . | -1 | 2.0 | -3% | -5

2 records drawn at random from those above:
SMILES | YopH PTP inh | Arbovirus anti | RecA intein inh | Mtb H37Rv | Mtb bLac sens | others
S=c1[nH]c(-c2ccc(Br)cc2)cn1CCc1ccccc1 | . | -2 | 1.7 | 4% | -4
O=C(O)c1ccc(S(=O)(=O)c2ccccc2)cc1 | -39 | 3 | 1.0 | -10% | 3

Other compounds
SMILES | YopH PTP inh | Arbovirus anti | RecA intein inh | Mtb H37Rv | Mtb bLac sens | others
CCOC(=O)C1CCN(C(=O)c2sc3nc(-c4ccc(F)cc4)cn3c2C)CC1 | -28 | 8 | 9.2 | . | -11
COc1ccc(OC)c(NC(=O)Nc2ccccc2C)c1 | -46 | 0 | 1.3 | 12% | 0 | Arbovirus anti repeat=-1
Cn1c(Cc2ccccc2)nnc1SCC(=O)c1ccc(Br)s1 | -35 | -2 | -0.8 | -4% | -1
Cc1ccccc1NC(=O)c1cn(-c2ccccc2)nc1-c1ccccc1 | -18 | -5 | 16 | 4% | -2
COc1cccc(NC(=S)/C(=C(\[O-])c2cc(C)n(-c3ccccc3F)c2C)[n+]2ccc(N(C)C)cc2)c1 | . | -6 | 8.8 | 6% | 99
O=C1NC(=O)C2(COC(c3ccncc3)OC2)S1 (stereo not given) | -20 | 3 | -0.2 | -3% | -2

12 structures from above, sorted by length of the SMILES, lowest first:
SMILES | YopH PTP inh | Arbovirus anti | RecA intein inh | Mtb H37Rv | Mtb bLac sens | others
O=C1Nc2ccccc2/C1=C/c1cnc[nH]1 | -31 | -9 | 2.5 | -3% | -5
COc1ccc(OC)c(NC(=O)Nc2ccccc2C)c1 | -46 | 0 | 1.3 | 12% | 0 | Arbovirus anti repeat=-1
CCCCc1c(O)nc(SCC(=O)N2CCOCC2)[nH]c1=O | 4 | 12 | -1.3 | 4% | 11
Cc1cc(C)n2nc(SCc3nnc(-c4cccs4)o3)nc2n1 | . | 20 | 0.4 | -3% | -6
Cc1ccccc1NC(=O)c1cn(-c2ccccc2)nc1-c1ccccc1 | -18 | -5 | 16 | 4% | -2
Cc1nc2ccc(NC(=O)CS(=O)(=O)c3ccc(F)cc3)cc2s1 | . | . | -1.1 | . | -13
COc1ccc(C(=O)Nc2cccc(C(=O)N3CCN(C)CC3)c2)cc1 | 4 | 3 | -0.1 | -2% | -1
Cc1ccc(S(=O)(=O)n2nc(OC(=O)c3cccc(F)c3)cc2N)cc1 | . | . | 2.9 | . | 4
CCOC(=O)C1CCN(C(=O)c2sc3nc(-c4ccc(F)cc4)cn3c2C)CC1 | -28 | 8 | 9.2 | . | -11
COc1ccc(/C=C2/C(=N)N3N=C(CC(=O)N4CCCC4)SC3=NC2=O)cc1 | . | . | 2.2 | . | 4
O=C(CSc1nnc(Cc2cc(=O)[nH]c(=O)[nH]2)n1-c1ccc(Cl)cc1)N1CCc2ccccc21 | . | -1 | 2.0 | -3% | -5
COc1cccc(NC(=S)/C(=C(\[O-])c2cc(C)n(-c3ccccc3F)c2C)[n+]2ccc(N(C)C)cc2)c1 | . | -6 | 8.8 | 6% | 99
